Screening data as filed in PubChem BioAssay.
Beta apoptosis – beta cell apoptosis inhibition; 300,000 tested, 0.8% active; INS-1E cytokine-induced death, ATP luminescence, 48 h; percent of positive-control rescue, neutral wells zero; protection from apoptosis, % (test concentration not listed);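 active = all replicates at 75% or more, or half of them and the mean; inconclusive = half reach 75% but not the mean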;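 note: 0% = cytokine-treated negative control wells and 100% = positive control rescue; higher means more ATP so stronger rescue from cytokine killing; wells of about 40 µL received 100 nL stock; the first replicate is given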
T cruzi inh – T. cruzi replication inhibition; T. cruzi beta-gal in NIH3T3, luminescence, 90 h; inhibition, % (test concentration not listed); 300,000 tested, 1.4% active; AID 1885;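 active = mean inhibition across valid replicates above about 55%, limit read from the data; inconclusive = mean below that limit but half or more replicates reach it; inactive = mean below it, under half of replicates reach it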;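 note: signal also drops with host cell toxicity which is not excluded here; 0% = plate median of DMSO wells and 100% = zero luminescence signal; higher percent means less beta-gal luminescence so fewer parasites; stock transfer was 50 nL into about 50 µL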
MLL AF4-AF9 inh – MLL-AF4/AF9 protein interaction inhibition. inhibition, % at 10 µM. AlphaScreen, biotin-AF4 peptide binding to FLAG-AF9. 350,000 tested, 0.47% active. AID 651704;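 active = every replicate reaching a set inhibition limit, whatever the replicate mean, cut at about 25% in these data; inconclusive = mean inhibition reaches that limit but some replicates miss it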;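 note: 0% = plate neutral control median and 100% = total signal loss; the record names both 10 and 1 µM as test concentration; the first replicate is given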
Target sequence (P42568 whole entry, looked up): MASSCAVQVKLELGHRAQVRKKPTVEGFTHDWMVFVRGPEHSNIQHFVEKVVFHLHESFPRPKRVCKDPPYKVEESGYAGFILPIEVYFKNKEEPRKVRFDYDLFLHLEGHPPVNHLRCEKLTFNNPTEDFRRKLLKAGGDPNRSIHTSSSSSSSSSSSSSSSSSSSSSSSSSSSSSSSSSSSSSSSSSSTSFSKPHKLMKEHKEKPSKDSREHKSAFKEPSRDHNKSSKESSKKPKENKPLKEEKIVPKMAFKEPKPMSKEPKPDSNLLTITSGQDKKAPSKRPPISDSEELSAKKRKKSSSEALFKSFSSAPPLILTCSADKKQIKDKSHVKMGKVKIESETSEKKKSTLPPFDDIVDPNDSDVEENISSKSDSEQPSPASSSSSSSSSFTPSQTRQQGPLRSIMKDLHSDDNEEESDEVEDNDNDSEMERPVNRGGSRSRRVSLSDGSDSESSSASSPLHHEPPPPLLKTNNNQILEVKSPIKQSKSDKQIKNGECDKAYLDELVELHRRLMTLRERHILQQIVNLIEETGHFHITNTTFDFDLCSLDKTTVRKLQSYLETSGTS
Ecoli growth – E. coli growth inhibition; Escherichia coli growth, OD600, 23 h; active compounds read low; OD600 absorbance (no concentration beside the values); 330,000 tested, 0.21% active; AID 1053175;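 active = OD600 absorbance below the run mean of sample wells minus 3.6 SD, in any replicate, cut at about 0.56 in these data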;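 note: stock transfer was 300 nL into about 60 µL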
Bfl-1 A1 inh – inhibitors of the anti-apoptotic protein A1, read as caspase activation; MEF A1-2A-BIM cells, Caspase-Glo 3/7 luminescence, 3 h; percent of clofoctol response, vehicle zero; caspase activation, % (concentration not given with the values); 330,000 tested, 0.066% active;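 active = over half of replicate activation scores above 10%, or exactly half above 10 with the replicate mean above 10; inconclusive = replicate mean below 10 yet half the replicates above 10; inactive = over half of replicates below 10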;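 note: wells of about 30 µL received 50 nL stock; many hits fall short of the cut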
rRNA inh HTS – inhibits bacterial ribosomal RNA function over humanized ribosomes | E. coli WT GFP vs humanized-ribosome RFP mutants, fluorescence, 24 h; active compounds read low; DMSO median 0, no signal -100 | GFP signal change (wild-type ribosome), % (test concentration not listed) | 350,000 tested, 1.6% active;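 active = significant combined selectivity score with lowered wild-type GFP, culture density cut under 30%, mutant RFP and density less affected; inactive = any of these conditions unmet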; note: one replicate is shown; some compounds called inactive have numbers as strong as hits
UCH37 DUB inh – inhibitors of human deubiquitinating enzyme UCH37; AID 588478; 330,000 tested, 0.33% active; inhibition, % (test concentration not listed); purified proteasome/UCH37, Ub-AMC cleavage fluorescence;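 active = mean of two replicates above 20%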;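 note: 0% = compound-free wells with enzyme and 100% = wells lacking proteasome; stock transfer was 100 nL into about 20 µL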
Target sequence (Q9Y5K5 whole entry, looked up): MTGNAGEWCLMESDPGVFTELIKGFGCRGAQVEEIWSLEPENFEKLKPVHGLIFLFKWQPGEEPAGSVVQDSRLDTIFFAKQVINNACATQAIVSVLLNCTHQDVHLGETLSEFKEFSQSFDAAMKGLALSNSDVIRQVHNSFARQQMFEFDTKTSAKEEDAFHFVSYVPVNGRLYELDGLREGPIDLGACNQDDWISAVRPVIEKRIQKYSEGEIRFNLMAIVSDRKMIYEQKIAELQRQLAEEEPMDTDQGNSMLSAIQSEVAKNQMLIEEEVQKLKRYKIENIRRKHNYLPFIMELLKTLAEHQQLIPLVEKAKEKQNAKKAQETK
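system = Proteasome-associated human UCH37 deubiquitinase | amount = 0.15 nM proteasome as dispensed | medium = pH 7.4 Tris-HCl (50 mM) with ovalbumin, ATP-MgCl2, DTT | incubation = 30 min preincubation with enzyme, 25 min cleavage at room temperature | detection = AMC fluorescence 355/460 nm | read-out basis = percent inhibition | controls = no-proteasome and no-compound wells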
FGF22 binding – binders of recombinant human FGF22 by thermal shift | SYPRO orange fluorescence; percent of sucrose octasulfate shift, DMSO zero | calls only at 9.99 µM | 340,000 tested, 1.5% active;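 active = melting point raised past a set limit in the mean and every replicate; inconclusive = no clear call; three in four hits are not shown here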
Target sequence (Q9HCT0 whole entry, looked up): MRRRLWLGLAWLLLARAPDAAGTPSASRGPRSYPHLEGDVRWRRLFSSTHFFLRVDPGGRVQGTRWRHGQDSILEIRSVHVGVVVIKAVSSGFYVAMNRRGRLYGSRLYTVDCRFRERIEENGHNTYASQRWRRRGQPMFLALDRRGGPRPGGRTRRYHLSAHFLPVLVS
rRNA inh HTS OD600 – further read-out of rRNA inh HTS, marked with its call; OD600 change, %; measured here: OD600 growth;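 optical density of the mix in the first replicate; 0 = DMSO median and -100 = no signal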
rRNA inh HTS RFP – further read-out of rRNA inh HTS, marked with its call; RFP signal change, %; measured here: RFP humanized mutant strains;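 first replicate; 0 = DMSO median and -100 = no signal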
* = called active by the depositor; i = inactive; ? = inconclusive; . = no result given. A portion of the library, so the mix of outcomes need not match the whole.

SMILES	Beta apoptosis	T cruzi inh	MLL AF4-AF9 inh	Ecoli growth	Bfl-1 A1 inh	rRNA inh HTS	rRNA inh HTS OD600	rRNA inh HTS RFP	UCH37 DUB inh	FGF22 binding
CCOC(=O)c1sc(NC(=O)c2ccc(S(=O)(=O)N3CCOCC3)cc2)nc1-c1ccccc1	0.8	8.6	1.9	0.736	0.3	-7.5	-1.5	-1.8	-6.6	i
O=C(NCc1nc2ccccc2[nH]1)C1=C[C@H](C2CCCCC2)C[C@H](OCCCCO)O1	5.3	-3.6	-2.9	.	0.4	.	.	.	5.0	i
COc1ccc(C(=O)N=c2sccn2C)cc1	1.9	-6.3	0.2	0.603	-5.3	-4.4	-3.7	-4.4	6.8	i
CCOc1cc(C(=S)N2CCOCC2)ccc1OS(=O)(=O)c1ccc(C)cc1	3.8	14.5	1.9	0.676	-0.2	-18.2	-14.0	1.2	3.7	i
COC(=O)c1ccccc1NC(=O)CN(C)S(=O)(=O)c1ccc(OC)cc1	10.9	6.6	.	0.708	-0.9	10.5	8.9	1.7	0.0	.
Cc1ccc(CNC(=O)C(=O)NCC2OCCN2C(=O)c2ccc3c(c2)OCO3)cc1 (centres undefined)	-4.9	-0.6	-2.5	0.69	0.6	16.4	13.0	1.0	-3.6	i
COc1ccc(NC(=O)CS(=O)(=O)c2ccccc2Cl)cc1	.	-11.0	1.7	0.637	-0.1	12.5	10.6	-4.6	1.6	i
O=C(Nn1c(SCc2ccc(F)cc2)nc2ccsc2c1=O)c1ccccc1	-5.4	20.1	.	0.678	0.3	.	.	.	4.8	.
COc1ccc(NC(=O)C2C3C=CC(O3)C2C(=O)O)cc1 (centres undefined)	1.1	8.1	4.0	0.686	0.0	0.7	1.9	-2.3	1.9	i
COCCCNC(=O)C[C@H]1C[C@H](C(=O)N2CCOCC2)[C@@]2(CCC3CCCC3)c3[nH]c4ccc(Cl)cc4c3CCN2C1=O	.	.	4.1	0.719	.	1.5	6.0	-2.0	0.2	i
Cc1ccc(C(=O)N/N=C/C=C/c2ccccc2)o1	-1.3	1.5	1.0	.	-0.3	10.2	10.0	0.5	.	i
COCCNC(=O)C(c1ccncc1)N(C(=O)c1sc(C)nc1C)c1cccc(C)c1 (centres undefined)	3.7	2.5	-1.5	0.683	-1.7	16.5	15.0	-0.4	-1.2	i
CCCCCCCNC(=O)C1(CC2CC(c3cccc(Br)c3)=NO2)CCNCC1 (centres undefined)	.	12.4	11.9	0.0475*	-0.6	-54.3	-81.4	-21.5	-1.5	i
COc1ccc(CCNC(=O)CN(C)S(=O)(=O)c2cccs2)cc1	-2.2	.	?	0.621	-0.7	2.9	5.2	-1.1	-1.6	i
O=[N+]([O-])c1ccc(-c2cnc(SC(c3ccccc3)c3ccccc3)[nH]2)cc1	31.1	49.1	11.9	0.704	0.0	-19.2	-15.1	-3.8	-2.3	i
Cc1ccc(-c2ccc(=O)n(CC(=O)NCCCN3CCCCC3)n2)cc1	-5.3	3.8	2.4	0.661	-0.1	6.5	5.1	-2.5	-6.7	i
CCN(CC)C(=O)CSc1nnc(SC(C)C(=O)NC2CC2)s1 (centres undefined)	3.0	.	-0.8	0.685	-0.3	.	.	.	4.8	i
COCc1c(C(=O)N2CCN(S(=O)(=O)c3ccccc3Cl)CC2)oc2ccccc12	0.4	.	0.7	0.69	1.3	-6.8	-26.1	2.9	0.8	i
CCCc1nn2c(=O)cc(CSCC(=O)Nc3ccc(OC)cc3)nc2s1	-6.8	-4.7	-0.1	0.669	0.1	1.9	12.0	-1.6	0.6	i
CCN(CC)c1ccc([N+](=O)[O-])cc1/C=N/NC(=O)CC#N	-6.9	-5.6	7.1	.	0.2	-1.0	2.2	3.3	.	i
CCN1CCN(C(=O)c2cc3sccc3n2CC(=O)c2ccccc2)CC1	-0.5	-32.2	.	0.677	0.3	.	.	.	4.6	.
Clc1c(OCCCn2ccnc2)ccc2ccccc12	9.4	61.3*	15.3	0.49*	0.0	-52.0	-78.2	-18.9	2.7	i
O=C(NCc1cccc(C(F)(F)F)c1)c1cccc(Cl)c1Cl	2.6	-8.3	0.0	0.726	0.6	-4.4	-0.1	0.8	3.9	i
O=[N+]([O-])c1ccccc1/C=C/C=N/Nc1ccc(S(=O)(=O)Nc2ccc(Cl)cc2)cc1[N+](=O)[O-]	29.8	68.5*	3.1	.	0.6	11.2	5.8	1.6	.	i
O=C(Nc1cc(S(=O)(=O)N2CCOCC2)ccc1N1CCCC1)c1ccc2c(c1)S(=O)(=O)c1ccccc1C2=O	6.1	38.7	3.8	0.726	0.1	-4.6	3.3	7.1	6.0	i
Nc1ccccc1C(=O)Nc1nccs1	-0.2	1.3	-5.1	0.647	-3.6	1.6	7.0	-0.3	-292.7	i
COc1ccccc1-n1ccnc(SCC(=O)NCc2ccccc2Cl)c1=O	-14.6	-0.4	-0.9	.	-0.4	13.8	16.5	6.0	.	i
Cc1ccc2c(C(=O)CN3CCSCC3)c(C)[nH]c2c1	3.0	.	.	0.773	0.0	.	.	.	3.2	.
Cc1onc(-c2ccccc2Cl)c1C(=O)N1CCCCC1C(=O)O (centres undefined)	.	-10.2	-1.0	0.763	0.9	4.3	12.0	-5.7	3.0	i
COc1cc(C(=O)NCc2nc(C)cs2)ccc1OC1CCN(C(C)=O)CC1	.	-3.7	-0.7	0.671	-0.7	12.3	11.4	1.8	1.3	i
COCCn1c(N)c(N(Cc2ccccc2)C(=O)c2ccc(N3CCCC3=O)cc2)c(=O)[nH]c1=O	.	.	0.1	0.624	.	27.3	9.4	-0.4	-0.3	i
CCn1c(SCC(=O)NCc2ccco2)nc2cccnc21	-2.6	0.4	.	0.698	?	7.2	8.9	6.2	1.4	.
Cc1ccccc1Nc1c(C)c(C)nc2ncnn12	0.7	-7.1	1.1	0.656	-0.8	0.7	-3.1	-2.4	2.6	i
Cc1cc(C)nc(/N=C2\NC(=O)CC(C(=O)O)N2c2cccc(Cl)c2)n1 (centres undefined)	-4.8	-6.6	.	0.679	0.0	.	.	.	7.0	.
Cc1cccc(CN2CCN(C(=S)Nc3ccccc3)CC2)c1	-3.0	-39.2	3.3	0.689	-0.1	-10.7	-4.8	-1.4	3.7	i
Cc1onc(-c2c(Cl)cccc2Cl)c1COC(=O)c1ccc([N+](=O)[O-])cc1	5.9	5.4	-2.1	0.656	-0.1	17.9	13.5	1.7	-1.3	i
CC(Sc1nc2c(c(=O)[nH]1)CCCC2)C(=O)Nc1ccc(Br)cn1 (centres undefined)	-2.4	4.6	0.6	0.624	-1.0	4.3	6.0	0.9	4.5	i
O=C(Nc1cccc(F)c1)Nc1cnccn1	-14.4	1.3	-1.8	0.68	0.3	17.6	15.6	-0.8	0.1	i
Cc1ccc(S(=O)(=O)Nc2ccc(C(=O)N3CCCC3)cc2)cc1	-3.2	-15.0	-0.8	0.727	0.3	0.5	2.1	-0.5	4.2	i
O=C(CSC1=NS(=O)(=O)c2ccccc21)Nc1ccccc1	-67.3	-39.3	-15.3	0.668	0.9	-18.7	-35.5	-0.4	5.4	i
CC(NC(=O)C(C)N1C(=O)c2cccc([N+](=O)[O-])c2C1=O)c1ccccc1 (centres undefined)	-6.9	-13.8	-4.5	0.664	-0.1	11.1	-2.6	0.9	3.3	i
Cc1ccc(C2c3c(-c4ccccc4O)n[nH]c3C(=O)N2Cc2ccncc2)cc1 (centres undefined)	19.6	5.7	.	0.684	1.1	.	.	.	0.7	.
CC1CN(C(=O)CSc2nnc(-c3cccs3)n2N)CC(C)O1 (centres undefined)	1.0	.	-2.5	0.701	0.2	6.7	9.2	-0.1	4.2	i
Cc1ccc(C(=O)NC(NC(=O)c2ccc(C)cc2)c2cccc([N+](=O)[O-])c2)cc1	10.2	1.6	-10.3	0.681	-0.7	12.7	3.7	-1.1	2.7	i
CCOc1ccc(C2/C(=C(/O)c3ccc4c(c3)CC(C)O4)C(=O)C(=O)N2CCCn2ccnc2)cc1OCC (centres undefined)	2.3	3.4	5.4	0.697	0.2	4.1	7.9	-0.3	11.8	i
CCOC(=O)N1CCN(C(=O)c2c(N)no[n+]2[O-])CC1	-3.5	3.4	.	0.702	1.1	.	.	.	9.7	.
Cc1nnc(SCC(=O)Nc2cccc([N+](=O)[O-])c2)n1CC1CCCO1 (centres undefined)	1.3	-3.7	-7.5	0.657	1.0	-8.9	7.8	-0.7	-3.0	i
CC(Nc1ncnc2nc[nH]c12)c1ccccc1 (centres undefined)	-5.4	-4.4	-4.2	0.698	0.1	-6.1	2.4	-3.5	2.4	i
CC(C)n1cc(C(=O)c2cc(Br)ccc2O)cc(C#N)c1=O	-0.9	0.6	.	0.65	-0.3	.	.	.	-1.0	.
CCOc1ccc(N/C(N)=N/c2nc(CSc3nnc(C)s3)cc(=O)[nH]2)cc1	0.5	20.6	-15.9	0.719	2.6	12.3	14.3	-0.5	5.3	i
CC1CC(=O)Nc2ccccc2N1S(=O)(=O)c1ccc(F)cc1F (centres undefined)	1.9	-1.5	-6.2	0.675	0.1	14.1	11.3	-0.2	0.8	i
CN(C)c1nc(OCCOC(=O)c2ccccc2)nc(N(C)C)n1	-6.0	-4.5	.	0.68	-0.5	.	.	.	2.4	.
O=C(Nc1ccccc1C(=O)N1CCCC1)c1ccc(Cl)cc1Cl	-2.5	-4.0	-2.9	0.667	-0.1	6.8	7.2	0.5	7.5	i
COC(=O)c1ccc(N=NN2CCOCC2)cc1	.	-7.4	5.1	0.719	-2.3	-8.1	-1.4	-8.2	9.5	i
CCN(CCCNC(=O)C1CCC(=O)N1Cc1ccc(C)cc1)c1cccc(C)c1 (centres undefined)	0.0	1.4	.	0.672	0.3	-22.5	-24.1	-0.8	1.3	.
O=C(NC1CCCc2ccccc21)c1cn2ccccc2n1 (centres undefined)	-8.0	5.4	-0.9	0.642	-1.4	-10.3	-12.1	-1.1	0.5	i
CCn1c(COc2ccc(=O)n(-c3ccccc3)n2)n[nH]c1=S	2.7	-1.1	1.3	0.687	-0.2	13.5	8.7	2.3	4.3	i
CON(C)S(=O)(=O)c1cccc(C(=O)Nc2ccc(S(=O)(=O)NC3=NCCCCC3)cc2)c1	.	.	0.1	0.633	.	1.7	-3.2	0.1	-1.4	i
Cc1ccc(C(=O)N/C(=C\c2ccco2)C(=O)NCCN2CCCCC2)cc1C	0.4	-1.3	3.0	0.691	-0.2	3.2	3.9	3.0	2.3	i
Cc1csc(=O)n1CCC(=O)OCc1nnc(-c2ccccc2Cl)o1	-2.5	.	1.3	0.688	0.7	1.5	-5.1	-1.4	-2.5	i
